# RanGTP-Impb inh – inhibitors of RanGTP-importin-beta interaction, primary screen, biochemical, FRET, CFP-Ran, YFP-importin-beta, homogeneous; cell-free CFP-Ran/YFP-importin-beta FRET ratio; hit rate 1.1% among 300,000; inhibition, % (test concentration not listed);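 active = most replicates above 15%; inconclusive = exactly half above 15%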;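 also: 0% = DMSO wells and 100% = Ran loaded with GDP instead of GTP; wells of about 40 µL received 100 nL stock; the first replicate is given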
# A1 inh – inhibitors of the anti-apoptotic protein A1, read as caspase activation. AID 2462. hit rate 0.066% among 330,000. caspase activation, % (no concentration beside the values). MEF A1-2A-BIM cells, Caspase-Glo 3/7 luminescence, 3 h; percent of clofoctol response, vehicle zero;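 active = over half of replicate activation scores above 10%, or exactly half above 10 with the replicate mean above 10; inconclusive = replicate mean below 10 yet half the replicates above 10; inactive = over half of replicates below 10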;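 also: wells of about 30 µL received 50 nL stock; many hits fall short of the cut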
# T cruzi repl – blocks replication of Trypanosoma cruzi | hit rate 1.4% among 300,000 | T. cruzi beta-gal in NIH3T3, luminescence, 90 h | inhibition, % (test concentration not listed);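 active = mean inhibition across valid replicates above about 55%, limit read from the data; inconclusive = mean below that limit but half or more replicates reach it; inactive = mean below it, under half of replicates reach it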;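 also: signal also drops with host cell toxicity which is not excluded here; 0% = plate median of DMSO wells and 100% = zero luminescence signal; higher percent means less beta-gal luminescence so fewer parasites; stock transfer was 50 nL into about 50 µL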
# MLL AF4-AF9 inh – inhibitors of human MLL-AF4/AF9 interaction; P42568; AlphaScreen, biotin-AF4 peptide binding to FLAG-AF9; inhibition, % at 10 µM; hit rate 0.47% among 350,000; AID 651704;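 active = every replicate reaching a set inhibition limit, whatever the replicate mean, cut at about 25% in these data; inconclusive = mean inhibition reaches that limit but some replicates miss it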;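 also: 0% = plate neutral control median and 100% = total signal loss; the record names both 10 and 1 µM as test concentration; the first replicate is given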
# Target sequence (P42568 whole entry, looked up): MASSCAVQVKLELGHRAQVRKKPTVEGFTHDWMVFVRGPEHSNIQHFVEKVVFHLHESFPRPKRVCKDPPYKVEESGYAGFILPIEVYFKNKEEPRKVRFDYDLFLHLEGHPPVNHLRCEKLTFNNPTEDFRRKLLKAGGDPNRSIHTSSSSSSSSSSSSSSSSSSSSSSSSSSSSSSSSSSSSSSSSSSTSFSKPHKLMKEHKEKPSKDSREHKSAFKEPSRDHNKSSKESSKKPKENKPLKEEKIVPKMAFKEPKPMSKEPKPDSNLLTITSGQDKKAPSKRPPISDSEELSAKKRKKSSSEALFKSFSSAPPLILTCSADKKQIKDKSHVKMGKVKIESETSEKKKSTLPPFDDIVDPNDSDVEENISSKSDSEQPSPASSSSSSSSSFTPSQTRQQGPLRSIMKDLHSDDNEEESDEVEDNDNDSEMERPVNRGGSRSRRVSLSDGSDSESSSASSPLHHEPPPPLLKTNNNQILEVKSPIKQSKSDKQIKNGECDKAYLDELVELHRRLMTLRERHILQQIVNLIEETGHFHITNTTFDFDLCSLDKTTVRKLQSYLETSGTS
# Vif TR-FRET – HIV-1 Vif–A3G interaction blockers – biochemical, TR-FRET, GST-Vif 1-94, biotin-A3G peptide, dose response retest, primary screen (AID 1117319); TR-FRET GST-Vif / biotin-A3G peptide binding; higher % means a stronger effect; test concentration not given here; strong numbers were not always called active; one-dose inhibition, %; IC50 in µM for titrated hits; hit rate 0.57% among 260,000;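 active = above the screen mean plus three standard deviations and confirmed in dose response; inconclusive = results disagree or hit not tested in dose response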;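 also: Vif residues 1-94 fused to GST binding biotinylated APOBEC3G peptide 110-148; 0% = full assay without inhibitor and 100% = GST in place of GST-Vif; retest series ran down from 100 µM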
# LANA-H2B inh – blocks KSHV LANA binding to histone H2A/H2B; Q9QR71; inhibition, % (concentration not given with the values); cell-free LANA-H2A/H2B peptide, fluorescence polarization; hit rate 0.6% among 320,000; in the data active = inhibition mostly above about 10%, no sharp cut-off; inactive = mostly below about 6.7%;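 also: stock transfer was 7.5 nL into about 10 µL; 0% = median of vehicle wells and 100% = median of positive control wells; one replicate is shown; the record names a cut of 25% in any replicate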
# Calb FLC – affects C. albicans growth with fluconazole; C. albicans CaCi-2 (fluconazole-resistant clinical isolate) + fluconazole, Alamar Blue growth, 48 h; growth inhibition, % (test concentration not listed); hit rate 0.57% among 300,000;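 active = most replicates above 75%; inconclusive = exactly half above 75%; inactive = most below 75%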;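 also: all wells also contain fluconazole at 8 µg/ml as a sub-toxic cotreatment; 0% = median of DMSO wells and 100% = median of geldanamycin control wells; wells of about 8 µL received 7.5 nL stock; the first replicate is given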
# Beta cell apopt – beta cell apoptosis inhibition; protection from apoptosis, % (test concentration not listed); INS-1E cytokine-induced death, ATP luminescence, 48 h; percent of positive-control rescue, neutral wells zero; hit rate 0.8% among 300,000;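 active = all replicates at 75% or more, or half of them and the mean; inconclusive = half reach 75% but not the mean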;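 also: 0% = cytokine-treated negative control wells and 100% = positive control rescue; higher means more ATP so stronger rescue from cytokine killing; wells of about 40 µL received 100 nL stock; the first replicate is given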
# * = called active by the depositor; ? = inconclusive; . = no result given. Random draw from the library. About 4.3% of those tested had a hit in this group.
compound	A1 inh	Vif TR-FRET	MLL AF4-AF9 inh	T cruzi repl	Calb FLC	Beta cell apopt	LANA-H2B inh	RanGTP-Impb inh
COc1ccc(C(C(=O)NC2CCCCC2)N(C(=O)c2sc(C)nc2C)c2ccc(OC)cc2)cc1 (stereo not given)	0.3	2%	3.1	17	23	.	1.8	-1.4
COc1ccc(OC)c(C(c2nnnn2CCC(C)C)N2CCN(C(=O)c3ccco3)CC2)c1 (stereo not given)	1.0	16%	.	8	3	1	-1.7	0.7
O=C(CSc1nnc(C23CC4CC(CC(C4)C2)C3)o1)Nc1ccc(N2CCOCC2)c(Cl)c1	-1.5	1%	.	20	-21	0	0.8	5.2
O=C(NC(=S)Nc1ccc(Cl)c(C(=O)O)c1)c1ccco1	0.5	.	-0.9	-8	-5	-8	1.8	0.3
COc1cc(OC)cc(-c2c(-c3cccs3)c3cc(Br)ccc3n2C)c1	-0.9	.	0.5	.	.	6	-1.3	.
CCOc1cc(NS(=O)(=O)c2ccc(NC(C)=O)cc2)c(OCC)cc1NC(=O)c1cccs1	0.4	19%	.	3	2	4	0.8	3.9
Cn1c(CNC(=O)CCNC(=O)c2ccc(Br)cc2)cc(=O)n(C)c1=O	0.4	.	-1.4	-6	.	-5	1.7	0.5
Cc1c(OCC(=O)N2CCC(C(N)=O)CC2)ccc2c3c(c(=O)oc12)CCC3	-0.9	.	-1.3	-7	0	-5	-1.3	0.2
Cc1cccc(NC(=S)NC(=O)C2CC2)c1	-0.6	-14%	.	-23	-5	.	-7.0	2.2
Cc1cc(C)n(CCNC(=O)C2CCC(=O)N(CCc3cccc(F)c3)C2)n1 (stereo not given)	-0.7	.	-7.5	-12	5	-3	8.8	-3.4
N#C/C(=C\c1ccccc1OCc1ccc(C(=O)O)cc1)c1ccccc1	0.6	.	1.4	1	-1	.	4.6	2.0
Cc1cc(C)cc(Oc2nc3ccccn3c(=O)c2/C=C(\C#N)C(=O)NC2CCS(=O)(=O)C2)c1 (stereo not given)	-0.9	0%	4.0	-15	3	-7	-1.9	?
CCS(=O)(=O)N1CCC(NC(C)=O)(c2ccccc2)CC1	-0.6	-1%	.	-5	3	-9	8.3	-2.1
Cc1ccc(C(CNS(=O)(=O)c2cc(F)ccc2F)N2CCN(C)CC2)cc1 (stereo not given)	.	-1%	0.5	0	-8	.	.	-5.2
COc1ccc(Cc2nc3ccccc3[nH]2)cc1OC	-0.3	.	-3.3	-11	-6	-3	0.5	1.8
COc1ccc(/C=N/n2c(-c3n[nH]c4c3CCC4)n[nH]c2=S)cc1OC	-0.4	11%	.	0	?	.	0.8	?
CC12CCC(C(=O)N(CCCCN3CCN(Cc4ccccc4)CC3)C1=O)C2(C)C (stereo not given)	1.2	28%	2.4	31	1	-7	-7.1	3.5
O=S(=O)(c1ccc(Cl)cc1)N1CCN(C2CCCCCC2)CC1	-0.4	-6%	.	-22	-14	-1	2.7	-0.5
O=C(OC1CCOC1=O)c1ccc2ccccc2n1 (stereo not given)	-0.2	-4%	.	-12	.	-7	3.1	5.8
O=C(OCC(=O)N1CCCCCC1)c1cccc(Cl)c1	-1.6	.	2.6	.	.	-4	1.4	.
COc1ccc(NC2=C(c3ccc(OC)cc3)C(=O)c3ccccc32)cc1	0.0	.	2.3	40	-7	8	0.9	1.6
CC(=O)Nc1ccc(OCCOc2ccc(/C=C3\C(=N)N4N=C(C)SC4=NC3=O)cc2)cc1	0.2	-1%	-2.6	0	-9	-2	-0.5	2.2
CCC(CC)COC(=O)C1=C(C)NC(=O)NC1c1ccccc1Br (stereo not given)	0.5	.	1.9	19	10	-3	-2.3	-0.7
CC(=O)c1ccc2c3c(ccc(O)c13)CC2	0.3	20%	-13	-6	6	-6	11	-2.3
CCCNC(=O)c1cccc(NC(=O)C(C)C)c1	0.6	.	-1.8	-16	6	2	3.0	-2.3
CC(C)CNc1ncnc2c1cnn2Cc1ccc(Cl)cc1	0.1	-5%	2.2	-10	14	-4	1.2	4.5
CCOC(=O)CC1=CC(=O)Nc2ccccc2N1	-0.3	12%	.	-18	-8	-8	5.0	1.2
CC(C)COC(=O)n1ccc(C(=O)N2CCCCC2)n1	-0.8	1%	.	2	5	13	1.6	1.5
COC(=O)C(C)N(C#N)c1nc(C)cc(C)n1 (stereo not given)	0.4	-10%	.	-6	-11	-9	2.7	9.8
Cc1ccccc1C(=O)NNc1ccc([N+](=O)[O-])cc1	0.2	2%	6.1	-6	-30	-1	6.0	1.2
C[C@H](NC(=O)c1nc[nH]c1C(=O)NCCCCCNC(=O)OC(C)(C)C)C(=O)OCc1ccccc1	-1.1	27%	1.0	11	-4	1	0.9	?
N#Cc1nc(-c2ccco2)oc1N1CCOCC1	1.2	31%	.	-5	5	4	3.5	.
CN(C(=O)COC(=O)/C=C/c1ccc2ccccc2n1)C1CCS(=O)(=O)C1 (stereo not given)	-0.7	-6%	-1.5	-8	50	-10	3.2	-2.9
CCC(=O)Nc1ccccc1C(=O)OCc1ccc(C(=O)c2ccccc2)cc1	-0.5	-2%	.	8	8	-2	-1.2	-2.1
CN=C(Nc1ccc(Br)cc1)SC1CC(=O)N(c2ccc(OC)cc2)C1=O (stereo not given)	0.3	6%	-0.8	10	2	-7	0.1	3.1
CN(C(=O)c1ccc(OC2CCN(CCc3ccccc3)CC2)cc1)C1CCOCC1	0.5	.	2.8	15	6	-2	-1.1	-3.3
CCc1nnc(NC(=O)CSc2nnc(-c3ccncc3)n2C)s1	-0.3	-5%	.	-6	-11	1	11	-0.4
CCN(CC)CCn1c(-c2ccccc2)nc(=S)c2c1CC(C)(C)OC2	-0.2	-9%	.	7	-13	3	-3.0	2.9
O=S1(=O)CCOC[C@H](Cc2ccccc2)N1Cc1cccc(F)c1	0.0	.	-1.9	16	1	-7	3.6	-4.6
COc1ccc(C2CC(=O)C3=C(C2)Nc2ccccc2N(C(=O)CCC(=O)O)C3c2ccc(F)cc2)cc1OC (stereo not given)	-0.2	.	4.9	13	-3	-7	1.3	7.0
O=C(NC(=S)NNC(=O)c1ccccc1O)c1cccnc1	0.1	-4%	-1.1	3	-3	9	-2.4	-2.1
CC1(C)C/C(=N/Nc2ccc([N+](=O)[O-])cc2[N+](=O)[O-])C(C)(C)O1	0.4	.	1.3	-15	30	11	1.2	-2.0
COc1ccc2oc(C(=O)C3CC3)c(N)c2c1	1.0	-1%	.	2	0	-9	0.1	0.7
Cc1ccc(OCC(=O)OCc2c(C)noc2C)cc1C	-0.6	0%	.	-12	-4	1	5.1	-2.2
O=C(c1cc(F)cc2c1OCOC2)N1CCN(c2ccc(F)cc2)CC1	0.4	11%	-4.4	-8	-2	-6	-7.0	2.8
Cc1ccccc1OCC(=O)NNC(=O)CSc1nc(N)cc(N)n1	-0.8	5%	-0.6	-5	-1	1	-2.1	?
CC(=O)c1cc2c(cc1NC(=O)c1ccccc1C)OCO2	0.1	.	.	2	2	-11	0.1	3.8
O=C(NCNC(=O)c1ccccc1)c1ccccc1	0.1	6%	.	-17	-13	-2	2.5	3.9
C=CCNC(=O)Cc1ccc(S(=O)(=O)N2CCOCC2)s1	0.5	0%	-3.9	.	.	-6	3.0	.
COc1cc2nc(CN3CCC(C(O)(c4ccccc4)c4ccccc4)CC3)[nH]c(=O)c2cc1OC	1.0	-3%	-2.7	27	28	-5	3.1	-0.3

# Carrying on:
compound	A1 inh	Vif TR-FRET	MLL AF4-AF9 inh	T cruzi repl	Calb FLC	Beta cell apopt	LANA-H2B inh	RanGTP-Impb inh
Cc1cc(N2C(=O)C3C4c5ccccc5C(c5ccccc54)C3C2=O)no1 (stereo not given)	-0.1	?	.	-7	14	1	2.8	-0.9
CCCC1Nc2ccc(C(=O)O)cc2C2C=CCC12 (stereo not given)	0.1	.	.	-30	4	0	4.6	4.3
COc1cccc(-c2nc(CS(=O)(=O)CC(=O)N3CCc4ccccc43)c(C)o2)c1	-0.4	-3%	1.3	6	-2	-11	0.1	-3.1
COc1ccc(CCN(CC(=O)NCc2ccc(F)cc2)C(=O)c2snc(C(N)=O)c2N)cc1OC	-0.8	.	-1.2	15	-3	2	-2.8	1.5
O=C(O)COc1ccc2c(-c3ccccc3)cc(=O)oc2c1	-0.1	-1%	.	-9	5	-5	1.9	1.7
COc1ccc(/C=C/C(=O)N(c2ccccn2)C2CCCCC2)cc1OC	?	17%	2.9	11	83*	5	3.6	-1.0
Cc1cc(C(=O)OCC(=O)NC(=O)c2cccn2C)c2ccccc2n1	1.7	32%	7.4	-34	9	3	3.1	1.9
CC(Oc1cccc(Cl)c1)C(=O)NCCCCc1ccccc1 (stereo not given)	0.5	.	-6.8	9	5	-4	6.4	0.3
COc1ccc(N2CCN(C(c3nnnn3CCc3ccccc3)C(C)C)CC2)cc1 (stereo not given)	?	2%	.	32	-5	2	1.8	-0.1
CN(CCOC(=O)c1ccc2c(c1)OCCO2)C(C)(C)C	-0.3	-7%	.	-11	-14	-3	-4.9	?
CCCc1nnc(NC(=O)CCC(=O)N2CCCCCC2)s1	0.0	-7%	.	-7	-2	-5	-1.2	-2.4
CC(C)CN(c1ccccc1)S(=O)(=O)c1nnc(NC(=O)c2ccco2)s1	0.3	8%	2.6	-17	0	10	-1.6	3.1
CN=C(Nc1cc(C)nn1-c1ccccc1)c1ccc(F)cc1	0.6	-7%	0.9	-7	?	2	-2.2	-2.3
COc1ccc(CCNC(=O)C(=O)NCC2OCCN2S(=O)(=O)c2ccc(Br)cc2)cc1OC (stereo not given)	0.0	20%	-1.9	-27	?	11	1.5	0.0
O=C(Cn1cc2c(n1)CCCCC2)NC1CCCCCC1	-0.2	-8%	-3.2	2	-12	0	5.2	-0.7
FC(F)(F)c1ccc(N2CCOCC2)c(NC2=NCCCCC2)c1	1.1	-2%	.	-5	-1	0	-4.2	-11
Cc1ccc(OCC(=O)Nc2cccc3ccccc23)c([N+](=O)[O-])n1	0.2	.	0.7	.	.	-1	-5.6	.
COc1ccc(OC)c(C(C)NC(=S)Nc2ccc(S(=O)(=O)Nc3ncccn3)cc2)c1 (stereo not given)	0.2	.	0.7	-7	-2	-1	2.2	2.3
COc1ccc(OC)c(NC(=O)CSc2nc(=O)n(CCN3CCOCC3)c3c2CCCC3)c1	-1.2	5%	2.3	13	-1	-4	-3.0	-5.2
CC1(C)CC(=O)C(CCCN2C(=O)c3ccccc3C2=O)C(=O)C1	0.2	0%	.	-4	-5	-10	2.4	-2.6
NS(=O)(=O)c1ccc(N=Cc2c(O)n(-c3nccs3)c(=O)c3ccccc23)cc1	0.7	25%	-4.2	-12	-5	-2	-0.4	-2.3
O=C(C1CCCN(Cc2ccccc2F)C1)N1CCc2ccccc2C1 (stereo not given)	0.8	21%	2.4	28	-18	-12	5.1	-1.3
C=CCNc1nc(C(=O)OC(C)C(=O)c2ccc(C)cc2)cs1 (stereo not given)	1.1	.	1.1	.	.	-1	2.4	.
C/C(N)=C(/C#N)C(=O)CSc1nc(-c2ccccc2)c(-c2ccccc2)o1	-0.7	.	-1.4	59*	5	.	-2.7	-3.7
Cc1ccc(C)c(OCC(=O)Nc2cc(NC(=O)COc3cc(C)ccc3C)cc(C(=O)O)c2)c1	0.1	.	-0.7	-7	15	.	-1.6	5.9
